# Screening results from PubChem.
# AID923 – qHTS Assay for Allosteric/Competitive Inhibitors of Caspase-1: Spectroscopic Profiling in AFC Spectral Region; compound fluorescence, AFC spectral region (405/520 nm); almost no hit is shown here; Potency, µM (highest dose often 57.5 µM), inactives show top-dose fluorescence increase, usual class: activators; 75,000 tested, 1.1% active; AID 923, 2007; active = well fitted activation curve with a large enough effect; inconclusive = small, poorly fitted or top-dose-only effect;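 also: potency is read from the fitted curve at half-maximal effect; 0% is about no effect; scaled to a free AFC standard on each plate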
#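 Titrations up to 57 uM read every 20 sec for 3 min (405/520 nm) with 50 nM caspase 1 and 5 uM Ac-WEHD-AFC, pH 7.5 HEPES buffer. Fluorescence-vs-time intercept gave baseline, scaled against on-plate AFC standard.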
# A647 fluor – compound fluoresces in the A647 spectral region | 59,000 tested, under 10 active | max dye-equivalent concentration, M | Compound fluorescence, A647 channel (570/671 nm), Tris buffer; active means above 1 µM dye equivalent; inconclusive means 0.1 to 1 µM; inactive means 0.1 µM or less;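 also: values scaled relative to a standard on each plate; highest value over a series up to 38 µM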
#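 Compounds pinned into 100 mM Tris pH 8.0, 15 min at room temperature, then read with 570 nm excitation/671 nm emission filters. Fluorescence normalized to an on-plate six-point Alexa 647 standard curve, giving dye-equivalent concentration per compound concentration.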
# A488 fluor – compound fluoresces in the A488 spectral region; compound autofluorescence, A488 spectral region, dye equivalency; hits give high values; max dye equivalency, M; 59,000 tested, 0.1% active; active = above 10 nM dye equivalent; inconclusive = 1 to 10 nM; inactive = 1 nM or less; about half of its hits are not listed in these tables;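 also: highest value over a series up to 38 µM; compound alone in buffer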
#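 Compounds pin-transferred into 100 mM Tris buffer, pH 8.0, incubated 15 min at room temperature, then imaged with 480 nm excitation/540 nm emission filters. Fluorescence converted to Alexa 488 dye-equivalent concentration via an on-plate six-point A488 standard curve.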
# TSHR ag – agonists of human thyroid stimulating hormone receptor; Potency, µM (series often up to 57.1 µM), for inactives: at the top dose activation, hits mostly activators; 73,000 tested, 0.48% active; AID 926; HEK293-CNG-TSHR cells (CNG channel as cAMP sensor), membrane potential dye, cAMP; P16473; active = well fitted activation curve of enough size with the parental cells flat; inconclusive = any curve in the parental cells; inactive = parental cells flat and receptor cells flat or falling; also: potency is read from the fitted curve at half-maximal effect; % of control where 0% means no effect; weak receptor curves with flat parental cells got no call and are not listed
# Target sequence (P16473 whole entry, looked up): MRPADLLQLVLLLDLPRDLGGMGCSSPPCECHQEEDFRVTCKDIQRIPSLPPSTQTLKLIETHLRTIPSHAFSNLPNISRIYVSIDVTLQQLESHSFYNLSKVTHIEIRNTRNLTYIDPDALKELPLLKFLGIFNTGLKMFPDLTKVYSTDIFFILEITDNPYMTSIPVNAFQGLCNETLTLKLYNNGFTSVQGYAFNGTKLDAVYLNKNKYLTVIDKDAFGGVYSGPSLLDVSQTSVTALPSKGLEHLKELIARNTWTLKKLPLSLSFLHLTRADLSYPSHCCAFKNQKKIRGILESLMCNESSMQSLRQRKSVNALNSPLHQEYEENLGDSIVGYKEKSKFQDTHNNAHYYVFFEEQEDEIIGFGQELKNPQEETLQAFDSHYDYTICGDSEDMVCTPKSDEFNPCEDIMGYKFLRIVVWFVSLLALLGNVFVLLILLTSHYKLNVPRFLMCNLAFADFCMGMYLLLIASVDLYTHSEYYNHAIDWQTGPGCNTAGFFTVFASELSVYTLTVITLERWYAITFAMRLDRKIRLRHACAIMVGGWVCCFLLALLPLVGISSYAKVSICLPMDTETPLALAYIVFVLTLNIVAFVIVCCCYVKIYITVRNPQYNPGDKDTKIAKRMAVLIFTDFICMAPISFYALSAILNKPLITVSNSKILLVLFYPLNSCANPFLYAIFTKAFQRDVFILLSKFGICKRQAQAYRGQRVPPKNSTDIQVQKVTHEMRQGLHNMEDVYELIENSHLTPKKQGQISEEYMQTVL
#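 cAMP rise detected as CNG-channel membrane depolarization by fluorescent dye (emission 590 nm), 30 min after compound, following 60 min dye loading containing 100 uM RO 20-1724 at room temperature. Cells: TSHR/CNG HEK 293, with parental CNG HEK 293 as control.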
# Resorufin autofl – resorufin region autofluorescence; Compound fluorescence, resorufin region 547/598 nm, buffer; hits give high values; max dye-equivalent concentration, M; 59,000 tested, 0.04% active; AID 588; active = above 10 nM dye equivalent; inconclusive = 1 to 10 nM; inactive = 1 nM or less; a few of its hits are not listed in these tables; also: highest value over a series up to 38 µM
#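 Read-out: intrinsic compound fluorescence at ex 547/em 598 nm after 15 min at RT in pH 8.0 Tris (100 mM). Values expressed as resorufin-equivalent concentration from per-plate standard series.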
# * hit, by the source's call; i = inactive; ? = inconclusive; . = no result given; [ ] = remark or other dose.
SMILES,AID923,A647 fluor,A488 fluor,TSHR ag,Resorufin autofl
CCCOc1ccc(C2C(=O)N(C3CCCCC3)CC(=O)N2CCC)cc1OC (stereo not drawn),-0.5%,3.7e-09,i,16%,i
CCCCS(=O)CC(CS(=O)CCCC)OC(=O)c1ccc(C)cc1 (stereo not drawn),0.1%,.,.,-4%,.
c1ccc(CSc2ncn(-c3ccccc3)n2)cc1,-0.9%,.,.,?,.
O=C(c1cc(C(F)(F)F)cc(C(F)(F)F)c1)N1CCC2(CCCN(Cc3ccccc3)C2)CC1,-1.0%,1.8e-08,i,8%,i
COc1ccccc1OCc1nc(C#N)c(NCc2ccco2)o1,-0.9%,1e-09,i,-2%,i
CC1CCN(C(=O)CSc2nnc(-c3ccc(S(=O)(=O)N4CCOCC4)cc3)n2C)CC1,1.4%,5.4e-08,i,-2%,i
CC(C)CN1CCC2(CC1)CCN(C(=O)c1cnccn1)CC2,1.0%,5.3e-09,i,26%,i
CCOC(=O)N1CCC(NC(=O)C2CCN(S(=O)(=O)c3cccc4cccnc34)CC2)CC1,0.4%,.,.,-3%,.
O=C(CSc1nnc2scc(-c3ccccc3)n12)N1CCN(Cc2ccccc2)CC1,-1.3%,8.7e-09,i,2%,i
O=c1c(-c2ccc3c(c2)OCCO3)c(C(F)(F)F)oc2cc(O)cc(O)c12,.,1e-09,i,.,i
Cc1ccccc1NC(=O)c1c(F)c(F)c(F)c(F)c1F,-0.6%,1e-09,i,1%,i
COc1cccc(-c2nc(N3CCNCC3)c3ccccc3n2)c1,-0.7%,3.1e-08,i,?,i
COc1ccc(-n2c(=O)c3ccccc3n(CC(=O)NC3CCCC3)c2=O)cc1,-1.0%,5.9e-09,i,-1%,i
O=c1cc(Cn2ccnc2)c2cc3c(cc2o1)CCC3,-0.7%,1e-09,i,8%,i
CCOC(=O)C1CCCN(C(=O)c2cc3c(=O)n4cccc(C)c4nc3n2C)C1 (stereo not drawn),2.7%,8.1e-09,i,5%,i
CCN(CC)CCOc1nc(C)nc2c1oc1ccccc12,0.8%,1e-09,i,-2%[11.4 µM],i
COc1cccc(-n2c(SC)nnc2-c2cnccn2)c1,1.6%,1.7e-09,i,1%,i
CC(=O)[C@@H]1[C@@H]2C(=O)N(c3ccc(F)c(Cl)c3)C(=O)[C@@H]2C2c3ccccc3C=CN21 (stereo partly drawn),16%,3.5e-08,?,2%,?
COc1cccc(C2=CC(c3cc(OC)ccc3OC)n3nnnc3N2)c1 (stereo not drawn),4.9%,2.3e-09,i,?,i
Cc1ccccc1NC(=O)c1ccccc1,-1.4%,2.7e-09,i,0%,i
CCc1c(C)nc2ncnn2c1N1CCCC(C(=O)NCCc2ccccc2)C1 (stereo not drawn),-0.9%,6e-09,i,.,i
COc1ccc(NC(=O)c2oc3cc(C)c(C)cc3c2C)c(OC)c1,0.2%,2.9e-09,i,.,i
CC(C)CCn1nnnc1C(c1ccc(F)cc1)N1CCN(C(=O)c2ccco2)CC1 (stereo not drawn),0.4%,4.1e-09,i,17%,i
O=C(O)C(F)(F)S(=O)(=O)O,1.6%,3.8e-09,i,-5%,i
Cc1noc(C)c1COC(=O)c1cccnc1SCC(=O)Nc1ccc2c(c1)OCO2,0.2%,3.6e-09,i,?,i

# Arranged by length of the SMILES (smallest number first): part of the list above
SMILES,AID923,A647 fluor,A488 fluor,TSHR ag,Resorufin autofl
COc1cccc(-n2c(SC)nnc2-c2cnccn2)c1,1.6%,1.7e-09,i,1%,i
COc1ccccc1OCc1nc(C#N)c(NCc2ccco2)o1,-0.9%,1e-09,i,-2%,i
CCc1c(C)nc2ncnn2c1N1CCCC(C(=O)NCCc2ccccc2)C1 (stereo not drawn),-0.9%,6e-09,i,.,i
COc1ccc(-n2c(=O)c3ccccc3n(CC(=O)NC3CCCC3)c2=O)cc1,-1.0%,5.9e-09,i,-1%,i
CC1CCN(C(=O)CSc2nnc(-c3ccc(S(=O)(=O)N4CCOCC4)cc3)n2C)CC1,1.4%,5.4e-08,i,-2%,i
CC(=O)[C@@H]1[C@@H]2C(=O)N(c3ccc(F)c(Cl)c3)C(=O)[C@@H]2C2c3ccccc3C=CN21 (stereo partly drawn),16%,3.5e-08,?,2%,?

# Complete entries as entered above.
# `COc1cccc(C2=CC(c3cc(OC)ccc3OC)n3nnnc3N2)c1` (stereo not drawn) is listed as AID923 = 4.9%; A647 fluor = 2.3e-09; A488 fluor = i; TSHR ag = ?; Resorufin autofl = i
# `COc1ccc(NC(=O)c2oc3cc(C)c(C)cc3c2C)c(OC)c1` is listed as AID923 = 0.2%; A647 fluor = 2.9e-09; A488 fluor = i; TSHR ag = .; Resorufin autofl = i
# `Cc1ccccc1NC(=O)c1c(F)c(F)c(F)c(F)c1F` is listed as AID923 = -0.6%; A647 fluor = 1e-09; A488 fluor = i; TSHR ag = 1%; Resorufin autofl = i

# The list goes on:
SMILES,AID923,A647 fluor,A488 fluor,TSHR ag,Resorufin autofl
CN(C)C(=O)CSc1nnc(CCNC(=O)OC(C)(C)C)o1,1.2%,1e-09,i,-3%,i
COc1ccccc1-c1nnc(SCCN2CCOCC2)n1-c1ccc(C)cc1,0.2%,4e-08,i,-4%,i
CSc1nc2sc3c(c2c2nnnn12)CCCC3,.,1.4e-08,i,.,i
CNC(=O)CN1C(=O)c2ccccc2S1(=O)=O,2.7%,.,.,-1%,.
O=C(Nc1nc(-c2cccnc2)cs1)c1ccc(S(=O)(=O)N2CCOCC2)cc1,-0.7%,1e-09,i,2%[11.4 µM],i
Fc1ccc2c(c1)[C@H]1OCC[C@H]1[C@@H](c1ccco1)N2,1.5%,1e-09,i,.,i
CCc1nc(C)cc(N)c1OCc1ccccc1,-0.8%,6.1e-09,i,?,i
COC(=O)c1cc2sccc2n1Cc1nc(-c2ccc(OC)cc2)oc1C,-0.1%,3.2e-09,i,11%[11.4 µM],i
CNC/C(Cl)=N/S(=O)(=O)c1ccc(C)cc1,3.1%[11.5 µM],1e-09,i,2%[11.4 µM],i
Cc1occc1C(=O)Nc1c(F)cc(F)cc1Br,-0.2%,1.5e-08,i,6%,i
CCOC(=O)c1ccc(CNC(=O)C2CCCCC2C(=O)OCC(F)(F)F)o1 (stereo not drawn),0.5%,1e-09,i,5%[11.4 µM],i
COC(=O)c1sc(NC(=O)c2ccco2)nc1C,-0.3%,5.8e-09,i,-1%,i
O=c1c2ccccc2n2cnnc2n1-c1ccccc1,-0.1%,1e-09,i,-5%,i
O=C(CSc1oc(-c2ccc(F)cc2)nc1S(=O)(=O)c1ccccc1)NCC1CCCO1 (stereo not drawn),-0.2%,1.8e-08,i,?,i
Cc1ccc(-n2c(Cc3cccs3)nnc2SCC(=O)OC(C)C)cc1,0.0%,2.9e-08,i,.,i
CC(C)(C)N(Cc1ccccc1)C(=O)CSc1nnc(CNc2ccc(F)cc2)o1,1.5%,1e-09,i,-3%,i
COC(=O)c1sc(NC(=O)Cc2cccs2)nc1C,0.5%,1.5e-08,i,7%,i
CCOC(=O)N1CCC(N2C(=O)c3ccc(C(=O)NC4CCCCCC4)cc3C2=O)CC1,-1.2%,.,.,4%,.
Clc1ccc2c(N3CCC(CCC4CCN(c5ncnc6cc(Cl)ccc56)CC4)CC3)ncnc2c1,2.9%[11.5 µM],4.1e-09,i,-3%[11.4 µM],i
O=S(=O)(Nc1cccnc1)c1ccc(C2CCCCC2)cc1,0.9%,2.8e-08,i,?,i
OC(COc1ccc2ccccc2c1Cl)CN1CCOCC1 (stereo not drawn),-2.3%,1.9e-09,i,9%,i
CCCCn1c(NC(=O)c2ccccc2)c(C#N)c2nc3ccccc3nc21,3.6%,2.2e-08,i,-10%,i
CCC(C)n1nccc1NC(=O)C(C)OC(=O)c1cc2ccccc2[nH]1 (stereo not drawn),2.1%,9.2e-09,i,9%,i
CCCCC(=O)NC1(C(F)(F)F)C(=O)Nc2c1c(=O)[nH]c(=O)n2Cc1ccco1 (stereo not drawn),4.5%,7.2e-09,i,-2%,i
O=C(C1CCC(C(=O)N2CCc3ccccc32)CC1)N1CCc2ccccc21 (stereo not drawn),-2.7%,1.5e-08,i,?,i
# New compounds follow
SMILES,AID923,A647 fluor,A488 fluor,TSHR ag,Resorufin autofl
O=C(Nc1ccc(S(=O)(=O)N2CCc3ccccc3C2)cc1)C1CCCO1 (stereo not drawn),-0.2%,3.2e-09,i,5%,i
CCOc1cc(S(=O)(=O)NCC2OCCc3ccccc32)c(OCC)cc1-n1cnnn1 (stereo not drawn),-0.3%,1e-09,i,-5%,i
O=C(Nc1ccc2nc(-c3cccs3)[nH]c2c1)c1ccco1,-1.9%,1e-09,i,12%,i
O=C(Nc1ccc2c(c1)CCC2)C1CCN(c2c3c(nc4ncnn24)CCC3)CC1,-1.4%,4e-08,i,11%,i
COc1cccc(-c2nc(CS(=O)(=O)CC(=O)N3CCN(C4CCCCC4)CC3)c(C)o2)c1,1.2%,.,.,23%,.
CC(C)(C)c1cc(C(=O)O)c(CN2CCCCC2)o1,-1.8%,5.8e-08,i,4%,i
O=C(O)C1CSC2(CCN(Cc3ccccc3)CC2)N1 (stereo not drawn),0.0%,1e-09,i,4%,i
COCCN1Cc2cccc(C(=O)N3CCN(c4cc(C)ccc4C)CC3)c2C1=O,-0.5%,.,.,10%,.
Cc1cccc([N+](=O)[O-])c1C(=O)O,-0.3%,.,.,17%,.
Cc1cc(C)n(-c2nc3ccccc3c(=O)n2OCCOc2ccccc2)n1,-0.7%,1e-09,i,?,i
COc1cc(CNC(=O)OCC(C)C)cc(OC)c1OC,-0.2%,.,.,16%,.
CS(=O)(=O)N1CCCC(C(=O)NCCc2ccccc2)C1 (stereo not drawn),-0.6%,2.1e-09,i,9%,i
COc1ccc2c(c1)CCc1c(C(=O)N3CCCC3)noc1-2,0.4%,2.8e-09,i,6%,i
CN(C)S(=O)(=O)N1CCN(C(=O)N(c2ccccc2)c2ccccc2)CC1,0.4%,3.7e-08,i,7%,i
Cc1ccc(Oc2nsnc2N2CCOCC2)cc1,-0.2%,1.4e-08,i,16%,i
CCn1c(SCC(=O)Nc2ccccc2-c2ccccc2)nnc1-c1ccoc1C,-0.2%,1e-09,i,?,i
COCc1c(C(N)=O)nnn1-c1nonc1N,1.2%,2.3e-08,i,-6%,i
CCNC(=O)COC(=O)c1ccc(S(=O)(=O)N2CCCCCC2)cc1,-0.4%,1e-09,i,1%,i
CNc1ncnc2c1ncn2[C@H]1C[C@@H](OP(=O)(O)O)[C@H](COP(=O)(O)O)O1,0.4%,1.3e-09,i,.,i
O=C(O)CCCC(=O)Nc1nc(-c2ccc(F)cc2)cs1,0.1%,2.6e-08,i,-6%,i
CCc1nnc(NC(=O)C(C)Sc2ccccc2)s1 (stereo not drawn),1.6%,.,.,4%,.
COC(=O)c1cccc(NC(=O)Cn2nnc3ccccc32)c1,0.0%,1e-09,i,?,i
Cc1ccc(S(=O)(=O)C(C#N)c2nc3ccccc3nc2N2CCC(C)CC2)cc1 (stereo not drawn),11%,7.7e-09,i,-9%,i
Cc1cc(-n2c(SCCC#N)nnc2-c2cccnc2)ccc1Cl,-1.5%,1e-09,i,-4%,i
C=CCn1c(SCc2cc(=O)n3ccsc3n2)nnc1C1CCCCC1,0.2%,3.4e-08,i,3%,i
COc1ccc(C2CC(=O)C3=C(C2)Nc2ccccc2N(C(=O)C2CC2)C3c2cccnc2)cc1OC (stereo not drawn),1.6%,2.2e-09,i,-1%,i
CCCCC(=O)O[C@H]1CC[C@H]2[C@@H]3CCc4cc(O)ccc4[C@H]3CC[C@]12C,.,1e-09,i,.,i
CC(C)C(=O)N[C@H]1CCCN1C(=O)/C=C\c1ccccc1,3.4%[11.5 µM],.,.,3%[11.4 µM],.
CCOc1ccc(-n2c(Cc3cc(=O)[nH]c(=O)[nH]3)nnc2SCC(=O)OC)cc1,0.1%,.,.,0%,.
CC(C)(C)Nc1ncnc2c1cnn2-c1ccccc1,-0.8%,.,.,18%,.

# Some of the compounds tested; rates above refer to the full screens.
